NS1 inh – inhibitors of influenza NS1 protein function; S. cerevisiae slowed by influenza A NS1, growth recovery by OD600; Potency, µM (doses to about 46.1 µM), for inactives: at the highest dose activity, positive = more growth; actives 0.4% (n = 270,000); AID 2326; active means well fitted rising curve with a large enough effect; inconclusive means small, poorly fitted or top-dose-only effect; inactive means no such curve, though single readings can be large or run the other way; also: nearly all actives have a fitted effect of over 50% in size
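A cell-based growth assay was used: compounds that relieve NS1-induced slow growth of budding yeast raise OD600. Assay medium was yeast nitrogen base with ammonium sulphate and -URA supplement, pH 6.0, with 2% galactose.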
Cruzain Triton – blocks cruzain activity in presence of Triton detergent. Potency, µM, without a hit: max response, negative = inhibition, actives largely listed as inhibitors. actives 0.43% (n = 200,000). purified cruzain, Z-FR-AMC fluorescence, 0.01% Triton. P25779. AID 1478;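 also: plate controls were neutral wells for no effect and buffer without enzyme for full effect; nearly all actives have a fitted effect of over 40% in size; top concentration of the series not given in the record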
Target sequence (P25779 123-467 limits assumed): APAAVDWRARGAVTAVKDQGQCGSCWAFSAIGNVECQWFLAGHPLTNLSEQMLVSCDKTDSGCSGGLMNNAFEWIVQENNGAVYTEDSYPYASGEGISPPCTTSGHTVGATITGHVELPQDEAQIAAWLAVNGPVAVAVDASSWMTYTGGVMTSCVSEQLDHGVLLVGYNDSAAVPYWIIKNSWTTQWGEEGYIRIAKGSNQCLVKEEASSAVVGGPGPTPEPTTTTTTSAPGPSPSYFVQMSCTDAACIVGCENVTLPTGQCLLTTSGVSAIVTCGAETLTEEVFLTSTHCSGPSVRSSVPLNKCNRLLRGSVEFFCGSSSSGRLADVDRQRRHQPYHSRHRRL
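Sodium acetate buffer (100 mM, pH 5.5) containing 5 mM DTT and 0.01% Triton X-100 hosted 1.5 nM cruzain and test compound for 15 min at room temperature. Cleavage of 2 uM Z-FR-AMC was then tracked by fluorescence.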
StopGo reporter – lowers the luciferase signal of an FMDV 2A StopGo reporter; human cells with a luciferase reporter of 2A StopGo recoding; control for the full effect not named in the record; Potency, µM (doses to about 57.9 µM), for the others: top-dose signal change, negative = less light; actives 1.2% (n = 410,000); AID 1159524; active = well fitted falling curve with a large enough effect; inconclusive = small, poorly fitted or top-dose-only effect; inactive = no such curve, though single readings can be large or run the other way; tested in HEK293T cells; also: % is scaled to controls: 0 for no effect and ±100 for the full control effect; nearly all actives have a fitted effect of over 45% in size; luciferase light after 4 h
Cruzain inh noDet – inhibitors of Trypanosoma cruzi cruzain without detergent | P25779 | purified cruzain, Z-FR-AMC fluorescence, no detergent | Potency, µM, inactives show max response, negative = inhibition, hits mostly inhibitors | actives 2.3% (n = 200,000);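 also: plate controls were enzyme without inhibitor for no effect and buffer without enzyme for full effect; nearly all actives have a fitted effect of over 40% in size; top concentration of the series not given in the record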
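Detergent-free condition (0.00005% Triton X-100) in acetate buffer pH 5.5 with DTT. 1.5 nM enzyme and compound were pre-mixed 15 min, then 2 uM Z-FR-AMC substrate added; reaction progress from fluorescence change between first and third reads (60 s).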
Marburg entry inh – Marburg virus entry inhibition; Marburg virus pseudotyped entry inhibition, cell reporter; control for the full effect not named in the record; about a third of the inactives were read at about 46 µM; Potency, µM (top dose mostly 37.8 µM), for the others: top-dose activity change, negative = inhibition, actives largely listed as inhibitors; actives 1.8% (n = 300,000); active = well fitted inhibition curve with a large enough effect; inconclusive = small, poorly fitted or top-dose-only effect, or effect the other way; inactive = flat fitted curve, though single readings scatter; tested in HEK293 cells; about a fifth of its hits are not listed in these tables; also: % is scaled to controls: 0 for no effect and ±100 for the full control effect; luciferase read-out
SARS PLpro yeast – blocks SARS-CoV papain-like protease in a yeast assay; S. cerevisiae expressing SARS-CoV PLpro, growth rescue; control for the full effect not named in the record; Potency, µM (highest dose often 32.9 µM), inactives show at the top dose activity, positive = growth rescue; actives 0.19% (n = 330,000); AID 485353; active means well fitted rising curve with a large enough effect; inconclusive means small, poorly fitted or top-dose-only effect; inactive means no such curve, though single readings can be large or run the other way; also: 0% is about no effect; nearly all actives have a fitted effect of over 55% in size; growth read by luminescence after 48 h
Lassa entry inh – blocks Lassa virus binding to or entry into cells | Potency, µM (top dose mostly 37.9 µM), inactives show at the highest dose activity change, negative = inhibition, hits mostly inhibitors | Lassa virus pseudotype entry inhibition, cell reporter; control for the full effect not named in the record | actives 1.2% (n = 300,000) | AID 540256; active means well fitted inhibition curve with a large enough effect; inconclusive means small, poorly fitted or top-dose-only effect, or effect the other way; inactive means flat fitted curve, though single readings scatter; tested in HEK293 cells; also: % is scaled to controls: 0 for no effect and ±100 for the full control effect; nearly all actives have a fitted effect of over 50% in size; luciferase read-out
RE007 growth inh – less growth of the S. pombe RE007 Vpr strain; S. pombe RE007 Vpr strain, BacTiter-Glo ATP luminescence, 24 h; control for the full effect not named in the record; Potency, µM (titrated, usually from 92.2 µM), for inactives: top-dose activity change, negative = less growth; actives 0.21% (n = 360,000); AID 651644; active = well fitted falling curve with a large enough effect; inconclusive = small, poorly fitted or top-dose-only effect; inactive = no such curve, though single readings can be large or run the other way;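 also: % is scaled to controls: 0 for no effect and ±100 for the full control effect; nearly all actives have a fitted effect of over 50% in size; the assay follows cell death caused by Vpr and the record does not say whether a fall means rescue or toxicity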
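Fission yeast strain RE007, carrying one chromosomally integrated HIV-1 vpr copy, was seeded at OD 0.01 in PMG+AL medium with 23 nL pinned compound. After 24 h at 30 °C and 99% humidity, viability was read by BacTiter-Glo luminescence.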
An asterisk follows results filed as active; ? = inconclusive; nt = not tested or not shown; & = joins results of further samples; [ ] = another dose, or the depositor's remark. Unless noted, calls follow the shape of the dose curve; as a rule, active = well fitted curve in the direction sought with a large enough effect; inconclusive = small, poorly fitted or top-dose-only effect, or another doubt; inactive = no such curve, though single readings can be large; an effect the other way counts as inactive or inconclusive. Potency is read from the fitted curve at half-maximal effect.

SMILES | NS1 inh | Cruzain Triton | StopGo reporter | Cruzain inh noDet | Marburg entry inh | SARS PLpro yeast | Lassa entry inh | RE007 growth inh
COc1ccc(C(=O)NCC(c2cccnc2)N2CCN(c3ccccc3)CC2)cc1 (stereo not given) | nt | -4.6% | -25% | ? | nt | nt | -19%[46.1 µM] | nt
CC(=O)c1ccc(S(=O)(=O)N2Cc3ccccc3CC2C(=O)O)cc1 (stereo not given) | 2% | nt | 1% | nt | 23%[46.1 µM] | 0% | 16% | 29%
CCOc1ccc(N(Cc2ccccc2)C(=O)c2nc(SCC)ncc2Cl)cc1 | nt | -6.1% | ? | -28% | ? | nt | -2%[46.1 µM] | nt
COc1cc(C(=O)OCc2cc(=O)c(O)co2)ccc1OC(F)F | -3% | nt | -6% | nt | ? | -11% | 14%[46.1 µM] | -4%
O=C(NCc1ccco1)c1ccccc1-c1ccccc1 | 10% | -4.3% | -15% | 2% | 15% | 3% | 9% | 5%
N#CCCN(C(=O)COC(=O)c1cc(=O)[nH]c2ccccc12)c1ccccc1 | nt | nt | -6% | nt | 11%[46.1 µM] | 19% | -1%[46.1 µM] | 2%
O=C(CC1C(=O)NCCN1Cc1ccccc1C(F)(F)F)NCCN1CCCCC1=O (stereo not given) | 1% | nt | 0% | nt | nt | -1% | nt | 3%
O=S(=O)(NCc1ccccc1)c1ccc2ccccc2c1 | -31% | nt | 81%[activator] | nt | nt | -3% | nt | 14%
CCOC(=O)Cc1csc(NC(=O)CSc2nc(=O)[nH]c3c2CCC3)n1 | nt | nt | -12% | nt | ? | -1% | 5% | 2%
COc1cccc(N2CCN(S(=O)(=O)c3ccc(-c4cnc(C5CC5)o4)cc3)CC2)c1 | 9% | -0.9% | -29%&-29% | -12% | nt | 5% | ? | 1%
CCCn1c2ccccc2c2nnc(SCC(=O)Nc3cc(C)on3)nc21 | 8% | -4.5% | -1% | -9% | -3% | -3% | -1% | 25%
CC(OC(=O)c1cc2sccc2n1C)C(=O)NCc1ccc2c(c1)OCO2 (stereo not given) | 12% | 5.7% | nt | -26% | ? | -6% | 16% | 6%
O=C(Nc1ccccc1)c1cc(S(=O)(=O)N2CCSCC2)ccc1Cl | 20% | -4.9% | -22% | 7% | 2% | -6% | 1% | -9%
Cc1cc(C)c2c(CC(=O)Nc3ccc(F)cc3)coc2c1 | nt | -1.6% | -13% | -21% | ? | nt | ? | nt
COc1ccc(C(=O)C2CCN(C(=O)Nc3ccccc3C)CC2)cc1 | 13% | nt | 3% | nt | -8%[46.1 µM] | -6% | 1% | 6%
CC1(C)CC(=O)c2sc(NC(=O)CN3C(=O)CCC3=O)nc2C1 | -36% | -6.7% | -2% | -11% | nt | -4% | nt | -1%
N#C/C(=C/c1ccc(N2CCCCC2)o1)C(=O)Nc1ccc2ccccc2c1 | 11µM* | -6.1% | -3% | ? | ? | 19% | 11% | -4%
CC1=C(C(=O)Nc2ccccc2)SCCO1 | 2% | 5.4% | 15% | -1% | nt | nt | nt | 0%
O=C(COC(=O)c1cc(Br)c(Br)s1)NCCC1=CCCCC1 | -8% | -0.2% | -15% | -5% | ? | 6% | 2% | 10%
C=CCn1c(C)cc(C2=NNC(=NC(C)(C)C)SC2)c1C | 25% | -5.1% | ? | -1% | ? | -2% | ? | -4%
O=C1/C(=C/c2ccco2)N=C(N2CCCCC2)N1c1ccccc1 | 21% | -8.5% | -26% | -6% | 8% | 23% | 9% | 5%
O=C(NNC(=O)c1cccc2ccccc12)c1ccc(-c2ccccc2)cc1 | 11% | -1.4% | -25% | -28% | ? | 5% | 0% | 8%
Cc1ccc(CNC(=O)CCCC(=O)O)cc1 | 3% | 1.0% | -8% | -2% | 0% | 6% | 18% | -6%
CC(=O)NS(=O)(=O)c1ccc(NC(=O)c2cccc(S(=O)(=O)N3CCc4ccccc43)c2)cc1 | 3% | nt | -3% | nt | -1% | 0% | -5% | -21%
CCn1cc(S(=O)(=O)N2CCc3ccccc3C2)cn1 | 6% | nt | 0% | nt | nt | 3% | nt | 18%
COC(=O)c1c(NC(=O)CN2CCN(c3ccccc3)CC2)c2c(C)cccc2n1C | -53% | -2.7% | -16% | ? | ? | 6% | -23% | 9%
CNc1nnc(Sc2ncccc2[N+](=O)[O-])s1 | 1% | nt | -10% | nt | 17%[14.2 µM] | 0% | ? | -3%
Cc1ccc2c(c1)S/C(=C\c1cccc[n+]1C)N2CCO | 4% | nt | ? | nt | nt | -2% | nt | ?
Cc1ccc(OCC(=O)Nc2ccc3oc(=O)ccc3c2)cc1 | -6% | nt | -7% | nt | -6%[46.1 µM] | -4% | 6% | -2%
O=S(=O)(Nc1cccc(-c2ccc(N3CCCC3)nn2)c1)c1ccc(F)c(C(F)(F)F)c1 | nt | -9.6% | 28% | -8% | nt | nt | 16%[46.1 µM] | nt
Brc1cccc(-c2nnc(CN3CCN(c4ccccn4)CC3)o2)c1 | nt | -1.2% | -8% | -9% | 5%[46.1 µM] | nt | 2%[46.1 µM] | nt
O=C(Nc1cccnc1)c1cccs1 | -9% | 4.1% | 0% | -4% | ? | -2% | ? | 7%
S=c1[nH]nc(COc2ccccc2)n1/N=C/c1c(Cl)cccc1Cl | -3% | nt | -19% | nt | nt | 2% | nt | -7%
COc1ccc(NC(=O)CCNS(=O)(=O)c2ccc(C)c(C)c2)cc1OC | 12% | nt | -1% | nt | 3%[46.1 µM] | -1% | 3%[46.1 µM] | -13%
Cc1cc(NC(=O)c2cc(-c3ccccn3)nc3ccc(Br)cc23)no1 | -9% | nt | ? | nt | nt | -1% | nt | -7%
CC(=O)N1CCc2cc(C(=O)CN3CCCCC3)ccc21 | 3% | 2.3% | -8% | -4% | nt | -2% | nt | 1%
COc1ccc2cc(-c3nc4ccccc4n3C)c(=O)oc2c1 | 13% | -3.1% | nt | 29% | 8% | -5% | ? | 13%
COc1ccc(N(Cc2ccccc2)S(=O)(=O)c2ccc(C)cc2)cc1 | -45% | nt | -4% | nt | ? | 0% | ? | -6%
Cn1c(NC(=O)c2ccccc2F)cc(=O)n(C)c1=O | 6% | 5.6% | -11% | 1% | nt | 6% | nt | -10%
CCOC(=O)C(Cc1ccccc1)C(=O)Nc1nccs1 (stereo not given) | -15% | -0.4% | 0% | 0% | ? | -4% | 17% | -3%
CCCN(c1ccc(C(C)C)cc1)S(=O)(=O)c1c(C)[nH]c(=O)[nH]c1=O | -4% | 2.3% | -16% | 5% | 15% | -4% | 5% | -6%
COc1ccccc1NS(=O)(=O)c1cc(-c2cc(C)no2)ccc1OC | ? | nt | -11% | nt | nt | ? | nt | -6%
Cc1nc2ccc(S(=O)(=O)CCC(=O)Nc3ccc(Cl)cc3)cc2s1 | nt | -1.6% | -23% | 3% | nt | nt | 6%[46.1 µM] | nt
O=C(Nn1cc(C(=O)N2CCN(c3ccccc3F)CC2)c2ccccc2c1=O)c1cnccn1 | -56% | 2.3% | -17% | ? | ? | -2% | -29% | -7%
COC(=O)C1=C(C)N(C(C)C)C(=O)C1(NC(=O)C1CCCCC1)C(F)(F)F (stereo not given) | 1% | 3.1% | 2% | -3% | 0% | 15% | 5% | -13%
COC(=O)/C(=N\Nc1ccc(Cl)cc1)Sc1nnc(-c2ccc(OC)cc2)n1C | 4% | -6.7% | 17% | 0% | 15% | 15% | -2% | 24%
CNC(=O)C1CC(=O)N(c2ccc(F)c(Cl)c2)C1 (stereo not given) | 7% | 2.2% | 4% | -2% | -10% | -1% | -13% | 12%
O=C(CCc1nnc2n(Cc3ccccc3)c(=O)c3ccccc3n12)NCCN1CCOCC1 | -8% | nt | -17% | nt | nt | 3% | nt | -13%
COC(=O)[C@@]1(Cc2ccc(F)cc2)[C@H]2c3cc(C(=O)N4CCCC4)n(CCF)c3C[C@H]2CN1C(=O)c1ccccc1 | nt | 3.1% | -24% | ? | nt | nt | nt | -30%
CCN(C(=O)C1CCN(S(=O)(=O)c2cc(Br)cc3c2N(C(C)=O)CC3)CC1)c1cccc(C)c1 | nt | -2.3% | -27% | ? | ? | nt | -24%[46.1 µM] | nt
S=C(Nc1ccc(Cl)cc1)N1CCCC1 | -2% | -0.8% | 61%[activator] | 2% | 17% | 21% | 6% | nt
CCOC(=O)c1cnc2ccc(Br)cc2c1NCCN1CCOCC1 | nt | -2.8% | -19% | -16% | -13%[46.1 µM] | nt | 1%[46.1 µM] | nt
Cc1ccccc1-c1nn2c(=O)cc(CN3CCN(C(=O)c4ccccc4Br)CC3)nc2s1 | nt | -5.7% | -8% | -6% | nt | nt | ? | nt
CCCNC(=S)N1CCC(NC(=O)Nc2ccc(C)cc2)CC1 | -2% | nt | -3% | nt | nt | 1% | nt | -1%
NC(=O)CSc1nc(-c2ccccc2)c(-c2ccccc2)o1 | -9% | -4.9% | nt | 9% | 5% | -13% | 17% | 1%
CC1CCCCN1CC(=O)c1ccc2cc[nH]c2c1 (stereo not given) | ? | -0.2% | 14% | -12% | nt | 4% | nt | 1%
CCn1c(CNC(=O)C23CC4CC(CC(C4)C2)C3)nnc1SCC(=O)Nc1nnc(C)s1 | 1% | 5.0% | -26% | 8% | nt | -1% | nt | 3%
COc1ccc(Cn2c(=O)[nH]c3cc(C(=O)N4CCN(c5ccc(OC)cc5)CC4)ccc3c2=O)cc1 | 4% | nt | -6% | nt | -1%[46.1 µM] | -16% | 2% | -4%
COc1nc(Cc2ccc(Cl)cc2)nc2ccccc12 | nt | nt | -22% | nt | ? | -7% | ? | 11%
O=C(Nc1cc(C(F)(F)F)ccc1N1CCCC1)c1cccnc1 | -4% | 0.3% | -5% | -14% | 10% | 3% | 10% | -19%

Going on with the list:
SMILES | NS1 inh | Cruzain Triton | StopGo reporter | Cruzain inh noDet | Marburg entry inh | SARS PLpro yeast | Lassa entry inh | RE007 growth inh
CCCN1CCN(CCCNC(=O)c2c(C)nn(-c3ccc(F)cc3)c2-n2cccc2)CC1 | nt | -1.2% | -17% | -6% | nt | nt | 22%[46.1 µM] | nt
CC(C)CCNC(=O)C(c1ccco1)N(C(=O)Cn1nnc2ccccc21)c1ccc2c(c1)OCO2 (stereo not given) | -16% | -0.9% | -19% | -3% | -16%&-16% | 0% | -18% | -11%
CCn1cnc2c1c(=O)n(CC(=O)Nc1ccc3c(c1)OC(F)(F)O3)c(=O)n2Cc1ccccc1 | 16% | -12% | -21% | -4% | -5% | -3% | -15% | -9%
C/C(=N\NC(=O)c1cccc2ccccc12)c1cccs1 | -2% | nt | 33%[activator] | nt | nt | -5% | nt | 19%

Assay outcomes from PubChem BioAssay.

Outcome played no part in choosing rows (roughly 4.6% active in at least one column).
